# Ba CapD inh: Bacillus anthracis CapD inhibitors, primary screen, biochemical, fluorescence intensity | purified CapD enzyme, fluorescence intensity read-out; hits give low values; some hits fall short of the stated cut | CapD gamma-glutamyltranspeptidase (Bacillus anthracis Ames Ancestor) | z-score (test concentration not listed) | 140,000 tested, 0.23% active;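 active means z-score under -4 in either of two replicates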;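 further: stock transfer was 100 nL into about 40 µL; score is relative to mean and spread of the plate; one replicate is shown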
# AID504770: growth inhibition of E. coli YBA685, primary screen, V. cholerae RctB inhibitors; E. coli YBA685 rctB-dependent plasmid, OD600 growth, 3 h; hits give low values; z-score (no concentration beside the values); 130,000 tested, 0.27% active; AID 504770, 2011;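 active means z-score under -2 on both plates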;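 further: wells of about 30 µL received 100 nL stock; score is relative to mean and SD of the test wells; the first replicate is given; strong numbers were not always called active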
# * marks the source's active call; other numbers are inactive results; . = not tested or not shown. This is a subset. The share of hits here may be higher or lower than overall.
SMILES	Ba CapD inh	AID504770
COc1ccc(/C=C(\NC(=O)c2ccc(C)cc2)C(=O)Nc2c(C)n(C)n(-c3ccccc3)c2=O)cc1	-0.54	.
COC(CNC(=O)c1ccc(/C=C2\Oc3ccccc3N(Cc3cccc(F)c3)C2=O)cc1)OC	-1.2	0.4
Cc1ccc(-n2cccn2)cc1	.	-0.95
COCCNC(=O)c1ccc2c(c1)nc(C)n2-c1ccc(OCc2ccccc2)cc1	0.1	.
CCc1ccc(COC(=O)N2CCN(Cc3c(OC)cc(OC)cc3OC)CC2)cc1	-0.36	.
CC(C)CCNC(=O)c1cc(=O)c2ccccc2[nH]1	.	0.15
C/C(=C\C(=O)C(F)(F)F)NCc1ccco1	.	-2.5
O=C1CCC(C(=O)N(CC2CCCO2)C2CCS(=O)(=O)C2)=NN1c1c(F)c(F)cc(F)c1F (configuration not stated)	.	-0.75
CS(=O)(=O)c1cc2ccccc2nc1N	61	-0.85
CCc1ccc2[nH]c(C(=O)Nc3ccc(C(F)(F)F)c(C#N)c3)cc2c1	66	0.2
CC1=N/C(=C/c2ccccc2)C(=O)O1	-0.51	-0.35
O=C(c1cccnc1)N1N=C2CCCCC2C1(O)C(F)(F)F (configuration not stated)	-0.03	-0.4

# Following part:
SMILES	Ba CapD inh	AID504770
CCCCC(=O)Nc1sc2c(c1C(N)=O)CCC2	0.89	-0.1
O=C(NCCC(c1ccccc1)c1ccccc1)c1cnc2ccccn2c1=O	-0.17	-1.5
CCOc1ccccc1N(C)C(=O)COc1cc(=O)n(C)c2ccccc12	5	0.75
COC(=O)c1sc(-c2ccc(Cl)cc2)nc1C	3.2	0.6
CCOC(=O)N1CCN(C(=O)CCC(=O)c2ccc(OC)cc2)CC1	-0.31	-0.7
COc1ccc(/C=C2\C=C(c3ccccc3)N(c3cccc(I)c3)C2=O)cc1Br	-1.4	.
CC(C)NC(C)C(=O)c1ccc2ccccc2c1 (configuration not stated)	.	-0.15
COc1ccc(-c2c3c(nc4c(C#N)c(C)n(-c5ccccc5)c24)CCC3)cc1	18	-0.1
O=C(Oc1ccccc1)c1ccccc1F	0.94	0.2
COc1ccc(NC(=O)c2cc3cc(OC)ccc3oc2=Nc2ccc(C(=O)O)cc2)c(OC)c1	-1.2	.
Cc1cc(C(=O)NCc2ccc(S(N)(=O)=O)cc2)c(C)o1	.	-0.3
Cc1cc(C)c2c(N)nsc2n1	.	0.6

# The results go on.
SMILES	Ba CapD inh	AID504770
CN1/C(=C\C=N\NS(=O)(=O)c2ccccc2)C(C)(C)c2ccccc21	.	-1.2
Cc1cc(-c2csc(NC(=O)C3CC3)n2)c(C)n1-c1ccc(F)cc1	.	0.2
Fc1cc2c(c(CSc3nc4ccccc4[nH]3)c1)OCOC2	0.29	.
CSc1nc(N)n(-c2ncccc2C(F)(F)F)n1	-0.36	-0.5
COc1ccc(N=C(NC#N)Oc2ccccc2)cc1	-0.015	-0.65
Cn1cc(Br)cc(Br)c1=O	1.8	0.3
CCOC(=O)C1CCN(C(=O)c2cccc(C(=O)N3CCC(C(=O)OCC)CC3)c2)CC1	0.05	-0.55
COc1ccc(-n2c(=S)[nH]c3cc(C(=O)Nc4cc(OC)c(OC)c(OC)c4)ccc3c2=O)cc1OC	0.12	.
CCC(=O)OCC(=O)C1(OC(=O)CC)[C@H](C)C[C@H]2[C@H]3[C@H]([C@@H](O)C[C@@]21C)[C@@]1(C)C=CC(=O)C=C1C[C@H]3Cl (some centres not stated)	-0.22	.
Cc1cc(C(=O)N(CCC#N)Cc2ccccc2)no1	-0.22	-0.9
CS(=O)(=O)Nc1ccc2[nH]c(=O)[nH]c2c1	-0.43	-0.6
COC(=O)c1cc(CSc2nnc(Nc3ccc(C)cc3C)s2)oc1C	.	-0.2

# (more compounds)
SMILES	Ba CapD inh	AID504770
O=S(=O)(NC1CCN(Cc2ccccc2)C1)c1ccc(Cl)s1 (configuration not stated)	0.7	.
Cc1ccc(CCSCC(=O)O)cn1	0.17	-0.05
S=c1[nH]ncn1/N=C/c1ccccc1	-0.86	0.65
CC1=CC(C)(C)Nc2ccc(OC(=O)c3ccco3)cc21	.	-0.6
CC(C(=O)O)N1C(=O)C2C3c4ccccc4C(c4ccccc43)C2C1=O (configuration not stated)	-0.48	.
CC(=O)NC1(NC(C)=O)CC(c2ccccc2)N(C)CC1C (configuration not stated)	.	-1.1
CCOc1ccccc1CNC(=O)CCSCc1ccccc1Cl	.	1.3
CC(=O)Nc1ccc(C=Nc2ccc(C(C)C)cc2)cc1	1.5	0.25
CCN(CC)C(=O)c1ccc(N2C(=O)C3C4C=CC(C4)C3C2=O)cc1 (configuration not stated)	0.23	-0.85
COc1ccc(Cl)cc1-c1nc(SCC(=O)N(CC(C)C)C2CCS(=O)(=O)C2)n[nH]1 (configuration not stated)	.	-1.8
COc1cc2c3c(c1OC)C1(C=CC(=O)C=C1)CC3N(C)CC2 (configuration not stated)	-0.48	1.1
COc1ccc(CCNc2oc(-c3ccc(C)cc3)nc2C#N)cc1OC	.	0.45

# Additional records
SMILES	Ba CapD inh	AID504770
CN(CC(=O)NCc1cccs1)S(=O)(=O)c1cccc2cccnc12	23	-0.55
O=C(O)CSCC(=O)Nc1ccc(-c2cn3ccsc3n2)cc1	.	0.05
CC1=NN(c2cccc(Br)c2)C(=O)/C1=C\c1ccc(-c2cccc([N+](=O)[O-])c2)o1	0.46	.
NC(=O)c1ccsc1NC(=O)Cc1ccc(S(=O)(=O)N2CCOCC2)s1	.	-5.4*
Cc1ccc2c(c1)NC(C)(C)c1ssc(=Nc3ccc(C)c(Cl)c3)c1-2	-0.43	.
Cc1ccc(NC(=O)Cc2nc(CN3CCCC3c3cccs3)cs2)cc1 (configuration not stated)	.	1.9
CCOC(=O)C1=C(C)OC(N)=C(C#N)C1C1CCCCC1 (configuration not stated)	0.14	-0.15
Cc1c(NC(=O)CN2CCN(C/C=C/c3ccccc3)CC2)c(=O)n(-c2ccccc2)n1C	0.27	.
CCOc1ccc(-c2cc(C(=O)N3CCCCC3C)[nH]n2)cc1 (configuration not stated)	0.77	0.6
CSc1nc(C=Nc2cccc(Cl)c2)c(O)n1Cc1cccc(Cl)c1	-0.74	0.95
COc1ccc(NC(=O)CSc2nnc3ccccn23)cc1	-1.3	1.1
Cc1cc(OCC(=O)OCC(=O)Nc2ccc(F)cc2)no1	.	0.15

# Other structures.
SMILES	Ba CapD inh	AID504770
CCc1cccc(CC)c1NC(=O)C(F)(F)Oc1cccc(C(F)(F)F)c1	-0.16	.
Cc1cc2nc3[nH]c4ccc(F)cc4c3nc2cc1C	0.36	.
N#CCC(=O)N1CCN(C=O)CC1	.	-0.35
CC1(C)CC(=O)c2cc(C(=O)Nc3cccc(O)c3)c(=O)[nH]c2C1	-0.14	0.55
COCCOC(=O)C1=C(C)NC2=C(C(=O)CC(c3ccc(OC)c(OC)c3)C2)C1c1ccc(SC)cc1 (configuration not stated)	19	.
COC(=O)c1ccc(CSc2n[nH]c(=O)[nH]c2=O)cc1	.	1.9
Cc1ccsc1/C=C/C(=O)NCC(=O)O	-3.1	0.2
Cc1c(N=Cc2ccc(Cl)cc2)c(=O)n(-c2ccccc2)n1C	-0.08	.
O=c1n(-c2ccccc2)c(=O)n2n1CCCC2	-0.41	-1
CCC(C)C(NC(=O)C(CC(C)C)NC(=O)OCc1ccccc1)C(=O)NN1S(=O)(=O)c2ccccc2S1(=O)=O (configuration not stated)	0.005	.
CCOC(=O)c1sc(N)c(C(=O)OCC)c1CSc1nnc2n1CCCCC2	.	0.45
CCc1ccc(N2CC(O)(c3ccccc3)[N+]3=C2CCCC3)cc1 (configuration not stated)	-0.35	-0.4

# Exported as labelled records: 4 of the compounds above
COC(=O)c1ccc(CSc2n[nH]c(=O)[nH]c2=O)cc1
  Ba CapD inh = .	AID504770 = 1.9

Cc1ccsc1/C=C/C(=O)NCC(=O)O
  Ba CapD inh = -3.1	AID504770 = 0.2

Cc1c(N=Cc2ccc(Cl)cc2)c(=O)n(-c2ccccc2)n1C
  Ba CapD inh = -0.08	AID504770 = .

O=c1n(-c2ccccc2)c(=O)n2n1CCCC2
  Ba CapD inh = -0.41	AID504770 = -1

# (list continues)
SMILES	Ba CapD inh	AID504770
COc1cccc(NC(=O)c2cc3c(s2)-c2c(C)cccc2OC3)c1	-0.32	0.45
CCOc1ccccc1NC(=O)c1c(NC(=O)C(C)Oc2cccc(Cl)c2)sc2c1CCC2 (configuration not stated)	-0.57	.
CC1CCc2nc(NC(=O)c3ccc(S(=O)(=O)N4CCc5ccccc54)cc3)sc2C1 (configuration not stated)	0.52	.
Cc1ccc(C2C3CCCC=C3C(C#N)=C(N)C2(C#N)C#N)cc1 (configuration not stated)	4.9	.
CSc1ncc(Cl)c(C(=O)N(Cc2ccccc2)Cc2ccco2)n1	1.2	1.2
COC(=O)c1ccc(CSc2nc3ccccc3c(=O)n2-c2ccccc2)o1	.	0.05
COc1ccc2[nH]c3c(=O)n(CCC(=O)NCCc4ccc(OC)c(OC)c4)c(=S)[nH]c3c2c1	0.55	-1.2
FC(F)Oc1ccc(NC(=S)NNc2nc3ccccc3[nH]2)cc1	.	0.6
O=C(c1cccc(-n2cnnn2)c1)N1CCCC(c2nc3ccccc3s2)C1 (configuration not stated)	.	-0.05
CC1CC(C)CN(S(=O)(=O)c2ccc(C(=O)Nc3ccccc3-c3nc4ccccc4[nH]3)cc2)C1 (configuration not stated)	-0.21	.
CCOC(=O)COc1ccccc1/C=C(/C#N)S(=O)(=O)c1ccccc1	0.89	-0.05
C/C=C/C1OC23CCCCC2C(C#N)(C(=N)O3)C1(C#N)C#N (configuration not stated)	9.2	-0.9

# Following part.
SMILES	Ba CapD inh	AID504770
Cc1cc(C)c(C2=NON3N(C(=O)C45CC6CC(CC(C6)C4)C5)c4ccccc4N23)c(C)c1	-0.15	.
COC(=S)Nc1ccccc1	-0.35	-0.7
O=C(O)C1c2ccccc2Oc2ccccc21	0.42	.
CCCc1ccc(S(=O)(=O)N(CCN(C)C)Cc2ccccc2)cc1	-0.085	.
N/C(=N\OC(=O)CCn1c(=O)oc2ccccc21)c1ccc(Cl)cc1	-0.27	-0.65
O=C(CCCC(=O)c1ccccc1)c1ccccc1	0.34	0
CC(C)CN(C1CCS(=O)(=O)C1)S(=O)(=O)c1cccs1 (configuration not stated)	.	0.25
CCOC(=O)c1ccc2c(c1)C1C=CCC1C(c1ccc(F)cc1)N2 (configuration not stated)	0.69	.
CCCCNC(=O)c1cccc2c1C(=O)N(CCC)C2	-0.74	2.2
O=C(Nc1nccs1)c1cc(=O)[nH]c2ccccc12	0.86	0
O=S1(=O)CCN(Cc2ccc(F)cc2F)CC1	0.3	-0.25
COC(=O)CSc1nc(C2CC2)cc(C(F)(F)F)c1C#N	.	1.1

# (more compounds)
SMILES	Ba CapD inh	AID504770
C/C(N)=C/C(=O)c1ccccc1	-3.3	0.05
COc1cccc(OCCSc2nc3ccccc3s2)c1	0.74	0.05
Cc1ccc(S(=O)(=O)/N=C(/N)c2ccccc2)cc1	0.1	0.7
Cc1ccccc1C(=O)Oc1ccc(-c2csnn2)cc1	0.56	0.45
c1ccc(SCCc2ccccn2)cc1	-0.48	-0.4
O=C(c1ccc2c(c1)C(=O)N(CCCO)C2=O)c1ccc2c(c1)C(=O)N(CCCO)C2=O	.	-0.1
O=S(=O)(c1ccc2c(c1)C(=NO)c1cc(S(=O)(=O)N3CCOCC3)ccc1-2)N1CCOCC1	5.2	.
CN(Cc1ccco1)C(=O)C1=Cc2sc3c(c2CS1)CCCC3	-0.29	0.25
CC(C)CC(=O)N(c1nnc(-c2cccnc2)s1)C1CCCC1	.	-1.2
CS(=O)(=O)N1CCN(c2ccc(NC(=O)CSc3nnc(Cc4ccccc4)o3)cc2)CC1	-0.025	0.15
O=C(CC1S/C(=N/N=C2\CSC(=O)N2)NC1=O)Nc1ccccc1 (configuration not stated)	.	-0.65
O=C(c1ccsc1)N1CCc2c([nH]c3ccccc23)C1	0.39	.

# (more compounds)
SMILES	Ba CapD inh	AID504770
CSc1nc2c(c(=O)[nH]1)C(c1ccc(F)cc1F)CC(=O)N2 (configuration not stated)	0.26	-0.25
CC(C)(C)c1cc(C(F)(F)F)nc(SCCNC(=O)c2cnn3cccnc23)n1	.	-0.05
CCCCN1C(=O)CS/C1=C(/C#N)C(=O)Nc1cccc(OC)c1	.	-0.9
CC(C)(C)N1CC(C(=O)O)CC1=O (configuration not stated)	0.27	0.25
CCC(c1nnc(SCC(=O)N2CCOCC2)o1)N(C)C (configuration not stated)	.	-0.7
CSc1nnc(SCCS(=O)(=O)c2ccc(Cl)cc2)s1	-0.24	1.7
O=C(CCN1C(=O)NC2(CCCC2)C1=O)Nc1ccc(S(=O)(=O)N2CCCCC2)cc1	.	-0.1
CC(C)N1C(=O)c2ccccc2CC1(C)C(=O)NC1CCCCCC1 (configuration not stated)	0.045	-1.6
COc1ccc(-c2csc(/C(C#N)=C/c3ccc(OC)c(OC)c3)n2)cc1	-2.3	.
CCOC(=O)c1c(C)n(Cc2ccccc2)c2ccc(OCC(O)CN3C(=O)CNC3=O)cc12 (configuration not stated)	0.66	-0.75
COc1ccc(CC(=O)N(C)Cc2cccc(OC)c2OC)cc1	.	0.4
Cc1cc(C)cc(NC(=S)NC(=O)C2CC2)c1	-0.55	-0.75
CCN(CC)S(=O)(=O)c1ccc(-c2ccc(/C=C3/N=C4CCCCCN4C3=O)o2)cc1	.	0.1

# Screening results: PubChem, ICCB-Longwood Screening Facility, Harvard Medical School
